# gsp agonist – gsp mutant agonism. gsp mutant cells, cAMP HTRF, 30 min; control for the full effect not named in the record. 0.13% of 340,000 active. Potency, µM (top dose mostly 76.9 µM), inactives show at the top dose activation (cAMP increase), usual class: activators. AID 624287; active = well fitted activation curve with a large enough effect; inconclusive = small, poorly fitted or top-dose-only effect, or another doubt; inactive = no such curve, though single readings can be large or run the other way; cell line not stated here;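 also: phosphodiesterase inhibitor Ro 20-1724 added with compounds to block cAMP breakdown; potency is read from the fitted curve at half-maximal effect; nearly all actives have a fitted effect of over 60% in size; about a fifth of the inactives were tested at one dose only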
#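 Cells in DMEM/10% FBS with G418 were pretreated with compounds in DMSO plus […] (300 uM stock) for 30 min at 37C. cAMP was measured by HTRF (cAMP-d2 plus anti-cAMP antibody-K) after 30 min at room temperature.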
# TRPV1 PAM – enhances activation of the human vanilloid receptor TRPV1 | Q8NER1 | TRPV1-expressing cells, Fluo-8 calcium influx, capsaicin EC20 potentiation; host cell line not named in the record; control for the full effect not named in the record | AID 540277 | 0.02% of 320,000 active | potentiation, % at 8.33 µM; active means potentiation above 80%; inconclusive means 30% to 80%; inactive means below 30%; also: 0% is about no effect
# Target sequence (Q8NER1 whole entry, looked up): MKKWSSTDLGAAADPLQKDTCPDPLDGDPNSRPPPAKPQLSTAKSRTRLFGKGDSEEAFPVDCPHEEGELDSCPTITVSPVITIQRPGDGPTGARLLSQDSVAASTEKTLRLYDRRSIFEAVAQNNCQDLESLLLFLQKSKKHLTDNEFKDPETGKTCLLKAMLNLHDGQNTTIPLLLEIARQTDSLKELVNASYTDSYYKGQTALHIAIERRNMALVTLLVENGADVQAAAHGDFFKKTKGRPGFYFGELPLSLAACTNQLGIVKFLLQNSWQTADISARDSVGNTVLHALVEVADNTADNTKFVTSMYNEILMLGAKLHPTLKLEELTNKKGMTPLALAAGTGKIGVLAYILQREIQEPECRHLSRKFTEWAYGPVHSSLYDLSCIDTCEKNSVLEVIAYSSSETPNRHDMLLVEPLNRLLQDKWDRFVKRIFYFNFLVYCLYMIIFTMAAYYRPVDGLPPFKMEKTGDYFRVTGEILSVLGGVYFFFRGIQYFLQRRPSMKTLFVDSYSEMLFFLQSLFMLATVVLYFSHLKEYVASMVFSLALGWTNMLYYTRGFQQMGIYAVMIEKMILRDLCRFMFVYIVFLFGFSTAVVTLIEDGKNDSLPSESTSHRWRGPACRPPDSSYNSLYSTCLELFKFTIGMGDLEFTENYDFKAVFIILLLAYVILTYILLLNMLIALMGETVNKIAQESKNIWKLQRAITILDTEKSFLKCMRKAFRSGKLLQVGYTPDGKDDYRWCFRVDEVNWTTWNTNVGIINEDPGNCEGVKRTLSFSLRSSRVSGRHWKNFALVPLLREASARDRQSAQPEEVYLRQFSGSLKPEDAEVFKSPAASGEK
#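 Fluo-8 calcium influx in TRPV1-expressing cells, kinetic read (ex 480/em 520 nm). Compound added and read 3 min for agonist activity, followed by capsaicin at EC20 final and 2 min further read for enhancement.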
# Sfp inh – inhibitors of Bacillus subtilis Sfp phosphopantetheinyl transferase; Potency, µM, for inactives: max response, negative = inhibition, actives largely listed as inhibitors; Biochemical Sfp PPTase activity, qHTS; AID 1490; 3.5% of 310,000 active; active = well fitted inhibition curve with a large enough effect; inconclusive = small, poorly fitted or top-dose-only effect, or another doubt; inactive = no such curve, though single readings can be large or run the other way;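 also: the enzyme is Sfp with the accession as filed and its product quenches rhodamine fluorescence; potency is read from the fitted curve at half-maximal effect; 0% = enzyme reaction without inhibitor and -100% = no enzyme wells; top concentration of the series not given in the record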
#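 Reaction rates are the 30-min fluorescence difference (ex 525, em 598 nm) in wells containing 15 nM Sfp, 5 uM rhodamine-CoA and 12.5 uM BHQ-2-YbbR at pH 7.6 with 10 mM MgCl2.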
# TRPML1 inh – human mucolipin-1 channel inhibition; TRPML1-inducible cells, Ca2+ dye fluorescence, FDSS; hits give low values; inhibition of EC80 agonist-evoked calcium signal; Q9GZU1; 0.02% of 390,000 active; activity change, negative = inhibition, % (test concentration not listed); in the data active means activity change below about -50%; inconclusive means about -30% to -50%; inactive means above about -30%;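 also: stimulus is agonist 54-4 at its EC80 concentration; % is scaled to controls: 0 for no effect and ±100 for the full control effect; compound concentration not given in the record; the text of the record puts the active cut at -80%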
#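 TRPML1-DL cells, Tet-induced overnight (~16 h, 37 °C) at 1,500 cells/well, were loaded with Ca8 no-wash dye plus quencher for 45-90 min at room temperature. Compounds were pinned during FDSS kinetic reading; agonist 54-4 at EC80 (4 uM final) then added.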
# gsp antagonist – antagonizes gsp, the McCune-Albright syndrome mutation; gsp-mutant cells, cAMP HTRF, 30 min; control for the full effect not named in the record; Potency, µM (series often up to 76.9 µM), for inactives: at the highest dose activity change, negative = inhibition, usual class: inhibitors; 0.4% of 340,000 active; active = falling curve of any shape with a large fitted effect; inconclusive = falling curve, mostly with a smaller effect; inactive = flat or rising curve; cell line not stated here;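 also: intracellular cAMP measured with PDE inhibitor Ro 20-1724 present during compound exposure; potency is read from the fitted curve at half-maximal effect; % is scaled to controls: 0 for no effect and ±100 for the full control effect; nearly all actives have a fitted effect of over 65% in size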
#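 Measurement of cellular cAMP by homogeneous time-resolved fluorescence following a 30 min compound exposure at 37C. The PDE inhibitor […] was present throughout; the assay buffer was DPBS with 0.05% BSA and 0.005% Tween 20.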
# ClpP mod – qHTS Assay for Activators of ClpP; 1.9% of 340,000 active; Potency, µM (doses to about 57.5 µM), for the others: at the highest dose activity change, negative = active; purified B. subtilis ClpP, FRET peptide cleavage, 20 min; ATP-dependent Clp protease proteolytic subunit (Bacillus subtilis (strain 168)), P80244; AID 651965, 2013; active = well fitted falling curve with a large enough effect; inconclusive = small, poorly fitted or top-dose-only effect; inactive = no such curve, though single readings can be large or run the other way; also: potency is read from the fitted curve at half-maximal effect; the source files actives as falling curves though it sought activators and does not explain the sign; nearly all actives have a fitted effect of over 65% in size; many hits overshoot -100%
# Target sequence (P80244 whole entry, looked up): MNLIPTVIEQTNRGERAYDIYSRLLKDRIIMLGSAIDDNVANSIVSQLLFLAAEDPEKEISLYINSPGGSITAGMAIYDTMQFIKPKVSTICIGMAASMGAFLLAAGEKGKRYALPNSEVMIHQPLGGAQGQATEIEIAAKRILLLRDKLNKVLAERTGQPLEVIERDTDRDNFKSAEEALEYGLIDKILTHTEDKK
#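 ClpP 10 microg/mL final, pH 8 Tris/KCl buffer with BSA, glycerol, Tween-20; compound pinned in; FRET-FV substrate; RT 20 min; Ex320/Em430; ΔFRET vs ADEP 5.8 microM, DMSO, no enzyme.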
# Menin-MLL FL inh – inhibitors of human menin-MLL interaction, wild-type MLL peptide; 290,000 tested, under 10 active; FP activity change, % at 61.4 µM; Fluorescence polarization, fluorescein-MLL peptide displacement from menin; AID 1766; inconclusive = falling polarisation curve, or a change in total fluorescence; inactive = total fluorescence flat and polarisation flat or rising; no compound was filed as active; the % refers to the polarisation; negative = inhibition;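 also: % of control where 0% means no effect; inhibitors lower the polarisation; unlabelled MLL peptide was the positive control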
# Numbers without * were called inactive; ? = inconclusive; . = not tested or not shown; & = joins results of further samples; [ ] = dose if it differs, or a comment. An unsorted share of the library, and some 4.9% of all compounds hit somewhere here.
# Below each compound: gsp agonist	TRPV1 PAM	Sfp inh	TRPML1 inh	gsp antagonist	ClpP mod	Menin-MLL FL inh
COc1cc(-c2cc(C(=O)N3CCCCCC3)c3ccccc3n2)cc(OC)c1OC
→ 12%[15.4 µM]	5	.	8	12%	1.7%	.
CCCCN(C)S(=O)(=O)c1ccc(C(=O)Nc2nnc(-c3ccco3)o2)cc1
→ -22%	1	17%	-5	-22%	.	0.9
COc1cc(S(=O)(=O)N(Cc2ccc(C)cc2)C2CCCCC2)ccc1-n1cnnn1
→ -15%	-4	8%	23	-11%	0.7%	0.9
CN(C(=O)COC(=O)c1cc2ccccc2cc1O)c1ccccc1
→ -5%	.	.	31	-18%	-4.1%	.
CNc1nc(SCC(=O)Nc2ccc(Cl)c(Cl)c2)nc(N2CCOCC2)n1
→ -25%	5	1%	31	-2%	-0.7%	-0.8
CC1CCN(c2ccc3nnc(CCC(=O)N4CCN(c5ccccc5F)CC4)n3n2)CC1
→ 4%	2	-6%	-14	2%	-1.2%	.
Cc1ccc(OCC(=O)N2CCc3ccccc3C2)cc1
→ -12%	-7	15%	-4	-4%	-0.8%	-0.1
COc1ccc(-c2nn(-c3ccccc3)cc2C(=O)OCC(=O)c2ccc(C)c([N+](=O)[O-])c2)cc1
→ -71%[inhibitor]	-2	17%	-4	-3%	-1.2%	2.4
CC1CCCN(C(=O)C(=O)Nc2ccc3nc4n(c(=O)c3c2)CCCCC4)C1 (stereo not given)
→ ?	6	15%	-3	5%	1.0%	2.6
COc1cc(OC)cc(C(=O)NCC(=O)NCCN2C(=O)S/C(=C\c3ccc4c(c3)OCO4)C2=O)c1
→ -2%	.	.	-16	-3%	-5.9%	.
COc1cc(NC(=O)COC(=O)C2CC(O)CN2S(=O)(=O)c2ccc(Cl)cc2)c(C)cc1[N+](=O)[O-] (stereo not given)
→ 18%	.	.	1	7%	0.4%	.
CCOc1ccccc1NC(=O)CSc1nc2ccccc2c(=O)n1CC1CCCO1 (stereo not given)
→ -3%[15.4 µM]	2	?	29	-8%	-0.1%	-6.9
CCCCNC(=O)C1CC(c2cccc(F)c2)=NO1 (stereo not given)
→ .	?	-5%	13	2%	1.0%	6.8
CCOC(=O)N1CCC(NC(=O)c2ccc3c(c2)N=C(CC)c2cc(C)ccc2S3)CC1
→ 14%	16	7%	-5	-3%	-2.1%	2.6
CCN(C(=O)C(C)Sc1ccc(S(=O)(=O)N2CCN(C)CC2)cn1)c1ccccc1 (stereo not given)
→ -2%	-7	.	6	-5%	1.7%	.
C/C=C/c1cnc2c(c1)C(=O)N([C@H](C)CO)C[C@@H](C)[C@@H](CN(C)C(=O)NC1CCCC1)O2
→ -1%	.	.	24	.	-29%	.
C/C(=N\Nc1cc(N2CCOCC2)nc(C)n1)c1ccc(F)cc1
→ -35%[inhibitor]	?	-3%	-12	-10%	.	-4.2
O=S(=O)(c1ccc(Cl)c(S(=O)(=O)N2CCCC2)c1)N1CCCC1
→ 28%[15.4 µM]	-8	10%	-15	-3%	.	1.5
Cn1cccc1C(=O)OCC(=O)N1CCc2ccccc21
→ -5%	.	.	27	7%	0.8%	.
COCCN(C(=O)COC(=O)c1ccc2[nH]c(C)c(C)c2c1)c1c(N)n(Cc2ccccc2)c(=O)[nH]c1=O
→ -2%	4	.	-3	-11%	-16%	.
COC(=O)C1=C(C)OC(N)=C(C#N)C1c1cc(OC)c(OCC(N)=O)cc1Cl (stereo not given)
→ -19%	?	3%	4	5%	0.2%	?
Cc1ccccc1CC(=O)N1CCCc2ccccc21
→ -65%[inhibitor]	-8	1%	7	-1%	.	0.1
COc1cccc2cc(S(=O)(=O)c3ccc(C)cc3)/c(=N/NS(=O)(=O)c3ccc(C)cc3)oc12
→ ?	15	14%	-24	-4%	.	-1.6
CCN1C[C@@H]2[C@@H]3C(=O)N(C)C(=O)[C@@H]3[C@](C)(C1=O)N2C(=O)c1ccc(Br)cc1
→ .	.	.	17	9%	0.5%	.
CN(C)c1nc(C(=O)NN)nc(N(C)C)n1
→ -11%	1	2%	-6	7%	0.5%	3.8
C=CCCN(Cc1ccc(OC)cc1)S(=O)(=O)c1ccccc1Br
→ .	.	-5%	81	.	.	2.4
CCCCC(=O)Nc1ccc(C(=O)NNC(=O)c2cccs2)cc1
→ 14%[15.4 µM]	-13	35%[activator]	-7	5%	0.2%	-0.6
O=C(CN(C(=O)CNC(=O)c1ccco1)c1cccc(F)c1)NC1CCCCC1
→ -1%	5	5%	-5	1%	.	.
COc1cc(OC)cc(C(=O)Nc2ccc(NC(=O)c3ccco3)c(C)c2)c1
→ 39%	7	11%	-11	0%	.	3.1
CC(C)(C)c1ccc(-c2nc(-c3ccncc3)no2)cc1
→ -52%[inhibitor]	-9	?	7	2%	0.5%	-0.5
CCN(CC)CCNC(=O)c1ccc(NC2=NC3CS(=O)(=O)CC3S2)cc1 (stereo not given)
→ -6%	-3	0%	19	9%	-0.8%	0.4
Cc1ccc(C(C)C)cc1S(=O)(=O)Nc1cccnc1
→ 5%[15.4 µM]	?	-6%	11	-1%	-0.7%	-11
COc1ccc(/C=C(\C#N)C(=O)OCCNC(=O)c2ccncc2)cc1
→ 6%	6	19%	-1	-3%	.	3.4
CCCCN(C(=O)CN1C(=O)C2CCCCC2C1=O)c1c(N)n(Cc2ccccc2)c(=O)[nH]c1=O (stereo not given)
→ -1%	9	.	-20	3%	-27%	.
O=C(CN1CCN(C/C=C/c2ccccc2)CC1)Nc1ccc(F)cc1F
→ 25%[15.4 µM]	22	7%	2	8%	0.4%	3.0
CCN(CC)S(=O)(=O)c1ccc(NS(=O)(=O)c2cccc(C)c2)cc1
→ -35%[inhibitor]	-4	2%	-6	6%	0.2%	-0.6
CCOC(=O)C(Cc1ccc(NC(C)=O)cc1)N1C(=O)c2ccccc2C1=O (stereo not given)
→ -6%	17	.	18	-12%	0.4%	.
COc1cc(=O)n(C)c2ccccc12
→ -8%	-1	15%	-5	5%	-13%	-1.2
Cc1cccn2c(=O)c3cc(C#N)c(=O)n(CCCN4CCOCC4)c3nc12
→ 20µM*	-6	-72%	-2	12%	?	-1.3
COc1ccc(C(=O)c2ccc(OC)c(OC)c2)cc1
→ -1%	-16	9%	-7	6%	1.0%	-4.4
Cc1ccc(S(=O)(=O)c2ccsc2NC(=O)c2ccccc2)cc1
→ -1%	.	.	81	17%	-1.2%	.
Cc1nnc2ccc(-c3cccc(NC(=O)c4ccc(Br)o4)c3)nn12
→ ?	4	6%	15	-14%	.	-0.5
CCC/C(C(=O)NCCO)=C1/c2ccccc2C(=O)N1c1ccccc1
→ ?	.	.	21	4%	0.7%	.
COCCN(C(=O)c1ccco1)c1nc(-c2ccc(OC)cc2)cs1
→ 0%	.	.	33	.	0.2%	.
CN(CC(=O)Nc1ccc(F)cc1[N+](=O)[O-])C1CCS(=O)(=O)C1 (stereo not given)
→ -21%	.	.	17	18%	0.9%	.
C[C@@H](CO)NC(=O)c1ccc2c3n(nc2c1)-c1ccccc1CO3
→ 23%	-16	3%	-5	3%	4.4%	1.2
CCc1ccc(-c2cc(C)no2)cc1S(=O)(=O)NC(C)Cc1ccco1 (stereo not given)
→ -74%[inhibitor]	1	10%	3	-11%	-1.2%	-2.0
NS(=O)(=O)c1cccc(NC(=O)COC(=O)Cn2cnc3ccccc32)c1
→ ?	0	22%	-6	12%	1.2%	0.0
Cc1ccc(NC(=O)CN(C)CC(=O)NC2CCCc3ccccc32)cc1 (stereo not given)
→ ?	-3	7%	?	3%	.	3.6
COC(=O)c1ccc(CN2C(=O)C3CCCCC3C2=O)o1 (stereo not given)
→ 15%	6	-10%	2	9%	3.0%	9.1
O=C(COc1ccccc1C(=O)O)Nc1ccc(SC(F)F)cc1
→ -40%	-1	18%	-1	-14%	.	-6.3
CC1CN(CCCCOc2ccc(Cl)c3ccccc23)CC(C)O1 (stereo not given)
→ 26%	10	79µM*	24	13%	.	4.5
COc1ccc(CN2CCC3CC2c2cc(-c4cccc(C)c4)ccc23)cc1 (stereo not given)
→ .	.	.	1	2%	-0.9%	.
C/C=C/c1ccc(OCC(=O)OCC2=C(C(=O)OCC)C(C)NC(=O)N2)c(OC)c1 (stereo not given)
→ -13%[15.4 µM]	-11	.	-15	-2%	1.9%	.
CC/C=C/[C@@H](c1ccccc1)[C@H](C)C(O)CC(=O)SC(C)(C)C (stereo not given in full)
→ .	.	11%	-24	.	.	1.1
Cn1cncc1C#Cc1c(C=O)n(C)c2ccccc12
→ .	-1	.	-7	-3%	-8.4%	.
COc1ccc(NC(=O)CN2C(=O)COc3ccc(S(=O)(=O)N4CCOCC4)cc32)c(OC)c1
→ -28%	-10	15%	22	2%	0.3%	4.0
O=C(c1ccco1)c1cc2c(ccc3ccccc32)oc1=O
→ 26%	-6	4%	29	-3%	?	1.6
Cc1ccc(-n2nnnc2-c2ccccc2)cc1
→ 0%[15.4 µM]	?	-6%	-7	10%	0.9%	0.0
CC/C(=N/N=C(/CC)c1ccc(O)cc1)c1ccc(O)cc1
→ 7%	.	.	0	-17%	1.1%	.

# (more compounds)
# Below each compound: gsp agonist	TRPV1 PAM	Sfp inh	TRPML1 inh	gsp antagonist	ClpP mod	Menin-MLL FL inh
CC1CC(C)(C)NC(=S)O1 (stereo not given)
→ -6%	-6&0	-7%&32%	-2&-1	1%&10%	-1.1%	4.1&-1.1
NC(=O)CC(NC(=O)Cc1ccc(Br)cc1)c1ccc(N2CCN(c3ccccc3)CC2)c([N+](=O)[O-])c1 (stereo not given)
→ .	-2	-2%	87	-4%	2.4%	-0.9
COc1ccc(CC(=O)N2CCOCC2)cc1
→ -49%[inhibitor]	6	-20%	4	-8%	-0.4%	2.5
COC(=O)c1ccc2nc(C(F)(F)F)[nH]c2c1
→ -3%	3	4%	-2	-17%	1.3%	-1.0
CCC(C(=O)NCCc1ccc(OC)c(OC)c1)n1nc(C)n2c(cc3occc32)c1=O (stereo not given)
→ 33%	2	14%	-2	-4%	0.4%	.
Cc1sc2c(c1C)C(=O)/C(=C\Nc1ccccn1)S(=O)(=O)N2C
→ 10%[15.4 µM]	13	6%	12	14%	?	-0.5
